Screens: PubChem, Center for Chemical Genomics, University of Michigan
CDC25B CDK2 inh: human CDC25B-CDK2/CyclinA binding inhibition; HTRF CDC25B-CDK2/CyclinA binding, anti-His/anti-Flag; active compounds read high; 94,000 tested, 0.72% active; AID 1259370; z-score (test concentration not listed); P30305+P24941;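 further: score is relative to mean and SD of negative controls; strong numbers were not always called active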
TAR Tat displ: HIV-1 TAR-Tat binding disruption; HIV-1 TAR RNA, Tat peptide displacement FRET; active compounds read high; AID 1259389; z-score (test concentration not listed); 100,000 tested, 0.6% active;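 further: score is relative to mean and SD of negative controls; some compounds called inactive have numbers as strong as hits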
An asterisk follows results filed as active; · = not tested or not shown.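 How the source made its calls: active means z-score from 3 up in half or more of its runs; inactive means the rest.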

Screens in order – CDC25B CDK2 inh | TAR Tat displ
> CC(C)NC(=O)c1ccc2c(c1)ncn2CCNC(=O)NCC1CCCO1 (stereo not drawn)
    · | 1.4
> O=C(C1COc2ccccc2O1)N1CCC(c2nc3ccccc3o2)CC1 (stereo not drawn)
    -0.72 | 2.4
> O=C(Nc1nn2c(-c3ccccc3)nnc2s1)c1cccc(F)c1
    -1.3 | 2.5
> CC(=O)Oc1ccccc1/C=C1/N=C(c2cccc([N+](=O)[O-])c2)OC1=O
    -2.3 | ·
> CCOc1ccc2c(c1)NC(c1cccs1)=NC(c1ccc(F)cc1)=N2
    -1.6 | 1.3
> Cc1cc(C)c(NC(=O)CC(C)S(=O)(=O)c2ccc3c(c2)NC(=O)CS3)c(C)c1 (stereo not drawn)
    · | -5.1
> COc1cc(C2C3=C(Nc4ncnn42)c2ccccc2CC3)cc(OC)c1OC (stereo not drawn)
    -1.7 | ·
> COc1ccc(OC)c(C2C(C(=O)OC3CCCC3)=C(C)NC3=C2C(=O)CC(C)(C)C3)c1 (stereo not drawn)
    -0.56 | 1.2
> COCCc1nn2c(=O)cc(COC(=O)COc3ccc(F)cc3)nc2s1
    · | 0.27
> Cc1ccc2nc(Nc3ccccc3C)c3nnnn3c2c1
    · | -6.7
> COC(=O)C1=C(C)N=C2SCCC(=O)N2C1c1ccc(C(=O)OC)cc1 (stereo not drawn)
    0.26 | 1.3
> Cc1ccc(CNc2cc(-c3nn4c(C)nnc4s3)ccc2C)s1
    -0.92 | -0.07
> Cc1nc2nc[nH]n2c(=O)c1NS(=O)(=O)c1ccc(F)cc1
    -1.7 | -0.68
> O=C1CCCC2=C1C(c1ccco1)N(Cc1ccc(F)cc1)c1ccccc1N2 (stereo not drawn)
    · | -10
> COC(=O)Cc1cc(=O)n2[nH]c(SC)nc2n1
    0.74 | ·
> COCCN1C(=O)c2oc3ccccc3c(=O)c2C1c1ccc(O)c(OC)c1 (stereo not drawn)
    -1.8 | 0.37
> CC1C(=O)Nc2ccc(S(=O)(=O)N3CCCCC3)cc2NC1=O (stereo not drawn)
    -1.8 | 0.08
> COc1ccc(OCCCC(=O)Nc2nc3ccc(S(C)(=O)=O)cc3s2)cc1
    -3.3 | -0.04
> C=CCSc1nnc(NC(=O)c2nc(SC)ncc2Cl)s1
    -1.2 | 0.43
> O=C(CCc1nnc2ccc(NCc3ccc(F)cc3)nn12)NC1CCCC1
    · | 3
> Cc1ccc2cc3c(nc2c1)N(C(=O)C1CCCCC1)CC3
    -0.94 | -2.6
> COc1ccc(-c2c(-c3ccc(OC)c(OC)c3)c(C)n(C)c2C)cc1OC
    -0.74 | ·
> COc1ccccc1CNc1nc2ccccc2c2nc(-c3cccnc3)nn12
    -1.2 | -0.75
> CN(C)CCCN1C(=O)C(O)=C(C(=O)c2cc3ccccc3o2)C1c1ccc(N(C)C)cc1 (stereo not drawn)
    0.57 | 1.6
> CCOC(=O)c1cc(-c2ccccc2)sc1NC(=S)Nc1ccccc1
    -1.7 | ·
> CC(C)C(=O)Nc1ccc2nc(SCC(=O)Nc3nccs3)sc2c1
    -1.6 | -0.44
> CCCCOc1ccc(C2c3c(oc4ccccc4c3=O)C(=O)N2c2nncs2)cc1OC (stereo not drawn)
    -0.08 | 0.28
> CCC(C)(C(=O)NC1CCCCC1)N(CC1CCCO1)C(=O)CC1NC(=O)NC1=O (stereo not drawn)
    -0.35 | ·
> CC1CN(S(=O)(=O)c2cccc(C(F)(F)F)c2)CC(C)O1 (stereo not drawn)
    -0.89 | ·
> O=C(Nc1cccc(OCc2cc(=O)n3c4c(sc3n2)CCCC4)c1)c1ccco1
    -4.1 | 2
> O=C(CSc1ccc(-c2cccs2)nn1)Nc1ccc(F)cc1F
    · | 1.7
> O=C(NCc1c(Cl)cccc1Oc1ccccc1)c1ccc2nccnc2c1
    0.84 | ·
> Cc1c(C#N)sc(C(N)=O)c1C
    -1.3 | ·
> Cc1cc2nc(COC(=O)c3cccc(F)c3)cc(=O)n2o1
    · | 4.2
> COc1ccc(C2c3c(oc4ccc(C)cc4c3=O)C(=O)N2CCCN(C)C)cc1 (stereo not drawn)
    -0.54 | 0.04
> Cn1c(C(=O)N2CCCC(C(=O)NCCc3ccc(S(N)(=O)=O)cc3)C2)cc2sccc21 (stereo not drawn)
    -0.1 | ·
> Cc1cc(Nc2c(-c3ccc4c(c3)OCC(=O)N4)c(=O)c2=O)ccc1Br
    · | 0.66
> O=C(CN1C(=O)COc2ccc(S(=O)(=O)N3CCCCCC3)cc21)N1CCCCC1
    -1.3 | ·
> CCCS(=O)(=O)Nc1ccc2c(c1)CC(=O)N2C
    · | 1.3
> Cc1ccccc1N1NC(=O)C(C)(C)C1=O
    -0.41 | -0.86
> Cc1ccc(CNS(=O)(=O)c2ccc3c(c2)N(C)CCO3)cc1
    · | 0.74
> Nc1ccccc1C(=O)NCCCN1CCCCC1
    -0.37 | ·
> CC(C)OCCCNC(=O)C1CCN(S(C)(=O)=O)CC1
    · | 0.8
> COc1ccc(OC)c(S(=O)(=O)N2CCN(c3nc4ccccc4n4cccc34)CC2)c1
    -2.3 | 1.1
> COc1cccc(C2Nc3ccccc3S(=O)(=O)N2Cc2ccccc2)c1OC (stereo not drawn)
    1.6 | ·
> COc1ccc(N2CCN(C3=NS(=O)(=O)C(c4ccc(C)cc4)=C3C)CC2)cc1
    -0.84 | 0.53
> CC(C)CCNC(=O)CCC(=O)N1CC2CCCN2c2ccccc21 (stereo not drawn)
    · | -0.57
> Nc1ccc(Sc2c3c(nc4nc(-c5ccco5)nn24)CCC3)cc1
    -2.2 | 0.82
> Cc1nc2nc(NCc3cccs3)[nH]n2c(=O)c1CCC(=O)Nc1ccc(N(C)C)cc1
    -3 | -0.66
> Cn1c(=O)oc2cc(S(=O)(=O)NCc3ccc(F)cc3)ccc21
    -1.1 | ·
> O=S1(=O)N=C(Nc2nc(-c3ccc(Cl)cc3)cs2)c2ccccc21
    -1.2 | -0.23
> O=C(CSc1ncnc2sc3c(c12)CCC3)Nc1ccc2c(c1)OCCO2
    0.45 | 2.2
> CCCCc1nn2c(=O)cc(COC(=O)c3ccccc3Cl)nc2s1
    · | 0.3
> CCOC(=O)c1cnn(-c2nnc(-c3ccc(F)cc3)c3ccccc23)c1N
    · | 1.9
> Cc1cc(NC(=O)CCc2c(C)nc3ncnn3c2C)ccc1Br
    -1.2 | 3.3
> S=C(NNc1ccccc1)c1ccccc1
    -1.9 | ·
> COc1ccc(S(=O)(=O)NC2CCCCC2)cc1
    0.74 | 0.67
> Cn1c(=O)c2sccc2n2c(CCC(=O)N3CCN(c4cccc(Cl)c4)CC3)nnc12
    -0.63 | -0.88
> CCCN1C(SCc2cccnc2)=NS(=O)(=O)c2ccccc21
    · | 1.9
> O=C(c1ccccc1)C1CCNCC1
    -0.6 | ·

4 neighbouring records out of the list so far:
Screens in order – CDC25B CDK2 inh | TAR Tat displ
> COc1ccc(S(=O)(=O)NC2CCCCC2)cc1
    0.74 | 0.67
> Cn1c(=O)c2sccc2n2c(CCC(=O)N3CCN(c4cccc(Cl)c4)CC3)nnc12
    -0.63 | -0.88
> CCCN1C(SCc2cccnc2)=NS(=O)(=O)c2ccccc21
    · | 1.9
> O=C(c1ccccc1)C1CCNCC1
    -0.6 | ·

Profiles as entered above:
Profile of `COc1cccc(C2Nc3ccccc3S(=O)(=O)N2Cc2ccccc2)c1OC` (stereo not drawn) = CDC25B CDK2 inh: 1.6; TAR Tat displ: ·
Profile of `Cc1cc(Nc2c(-c3ccc4c(c3)OCC(=O)N4)c(=O)c2=O)ccc1Br` = CDC25B CDK2 inh: ·; TAR Tat displ: 0.66

(cont.)
Screens in order – CDC25B CDK2 inh | TAR Tat displ
> CCOC(=O)Nc1ccc(N2CCn3c(nc4ccccc43)C2)cc1OC
    -1.7 | -2.1
> O=C(Oc1cccc(NC2=NS(=O)(=O)c3ccccc32)c1)c1ccccc1
    -3.2 | -0.17
> Cc1ccccc1C(=O)Nc1cc(-c2cc(C(C)(C)C)oc2C)nn1C
    -1.8 | ·
> O=C(NCc1cccnc1)c1cc2nc(-c3cccs3)cc(C(F)(F)F)n2n1
    0.66 | 1.2
> CC1(C)[C@@H](O)CC[C@]2(C)[C@H]3C(=O)C=C4[C@@H]5C[C@@](C)(C(=O)O)CC[C@]5(C)CC[C@@]4(C)[C@]3(C)CC[C@@H]12
    · | 2.3
> CCCOC(=O)c1cn(CC)c2nc(C)ccc2c1=O
    · | 0.56
> CN(Cc1ccccc1)C(=O)CSc1nc(-c2ccccc2)no1
    · | 1
> CCCc1nn2c(=O)cc(COC(=O)c3ccc(Cl)cc3)nc2s1
    · | -0.45
> O=C(Cn1cnc(S(=O)(=O)N2CCOCC2)c1)Nc1ccc(F)cc1Cl
    · | -0.7
> COCCCNC(=S)Sc1ccc(Cl)cc1
    -2.5 | ·
> Cc1ccc(C)c(NC(=O)CSc2nncn3c2cc2sccc23)c1
    · | 3.5
> O=C1NS(=O)(=O)c2cc([N+](=O)[O-])ccc21
    -0.65 | ·
> COc1ccc([N+](=O)[O-])c(C=C(C#N)C#N)c1OC
    -1.4 | ·
> CCOc1ccc(C(C)(O)C(CN2CCOCC2)c2ccc(Cl)cc2)cc1 (stereo not drawn)
    -1.9 | -1.1
> CCc1nonc1NC(=O)c1oc2c(C)c(C)ccc2c1C
    -1.9 | 1.6
> Cc1ccc(S(=O)(=O)C[C@H]2O[C@@H](n3cc(I)c(=O)[nH]c3=O)C[C@@H]2O)cc1
    -2.5 | ·
> CCOC(=O)Cn1c(CN2CC(C)CC(C)C2)nc2c1c(=O)n(C)c(=O)n2C (stereo not drawn)
    0.43 | 0.91
> CCOC(=O)c1cncc(C#CCOC(=O)c2c(-c3c(Cl)cccc3Cl)noc2C)c1
    -1 | ·
> Fc1ccccc1CN1CCN(C2CCN(Cc3ccccc3)CC2)CC1
    0.3 | 0.02
> CC(=O)N1c2ccccc2C(=O)C1N1CCN(C(=O)c2ccco2)CC1 (stereo not drawn)
    · | -3.1
> Cc1ccc(C)c(NC(=O)C2Sc3nnc(C)n3NC2c2ccc(F)cc2)c1 (stereo not drawn)
    -0.93 | -1.2
> Cc1nnc2sc(-c3ccc(F)cc3)nn12
    -1.4 | 1.8
> Cc1ccc(O)c(-c2n[nH]c3c2C(c2cccc(O)c2)N(CCO)C3=O)c1 (stereo not drawn)
    -1.8 | 1.7
> Fc1ccc(-c2nn3c(-c4ccncc4)nnc3s2)cc1
    0.51 | 1.6
> COc1ccc2cc3c(nc2c1)N(S(=O)(=O)c1ccc(F)c(C)c1)CC3
    -2.3 | -1.1
> Cc1ccc(C)n1-c1nnc(N2CCCC(C(=O)NCCCOC(C)C)C2)s1 (stereo not drawn)
    -0.12 | -0.57
> CC1CCN(c2nn3c(=O)c(C(=O)N4CCOCC4)cnc3s2)CC1
    · | -0.48
> Cc1cc(C(=O)CN2CCCCC2)c(C)n1-c1ccc(F)cc1
    · | -6.1
> Cn1c(=O)c2ccc(C(=O)NC3CCCC3)cc2n2c(=O)[nH]nc12
    -3.3 | 3.1
> O=S(=O)(Nc1ccc(F)cc1Cl)c1ccc(-c2cnc(C3CC3)o2)cc1
    · | 1.1

New compounds follow
Structure,CDC25B CDK2 inh,TAR Tat displ
O=C(NC1CCCC1)c1cc(OCc2ccccc2)nc2ccccc12,·,0.99
CC1CCN(c2cc(N3CCN(C)CC3)c3noc4c3c2C(=O)c2ccccc2-4)CC1,1.8,-3.2
O=S(=O)(NCCc1csc2nc(-c3ccccc3F)nn12)c1ccc(F)cc1,·,1.1
O=C(c1ncoc1-c1ccccc1)N(Cc1ccccn1)Cc1ccccn1,-1.3,·
CCOCCCNC(=O)C(C)n1sc2ccccc2c1=O (stereo not drawn),-1.4,1.2
Cn1c(SCc2cc(=O)c3cccc(F)c3[nH]2)nnc1-c1ccccc1,·,-1.3
CCOc1ccc2ncc(S(=O)(=O)c3ccccc3)c(N3CCCC(C)C3)c2c1 (stereo not drawn),0.69,1
O=C(C1=Cc2sc3c(c2CS1)CCCC3)N1CCCC1,·,-0.5
O=C(CCN1C(=O)c2ccccc2S1(=O)=O)N1CCN(c2ccccc2)CC1,-0.04,·
Cc1noc2ncnc(N3CCc4ccccc43)c12,·,0.69
CC(C)OC(=O)CC(=O)CSc1nc2c(c(-c3cccs3)c1C#N)CCCC2,-2.1,·
Cn1c(=O)c(-c2noc(CCC(=O)O)n2)nn(-c2ccc(Cl)cc2)c1=O,1.7,0.3
Cc1ccc(S(=O)(=O)NCCCN(C)C)c(C)c1F,-2.3,·
Cc1cccc(Cn2cc(C(=O)c3ccccc3)c(=O)c3cc4c(cc32)OCO4)c1,-0.11,0.87
CCN(CC)Cc1nc2c(c(=O)[nH]1)C(CC)(CC)Cc1ccccc1-2,-1.2,1.2
Cc1cc2c(cc1C)C(c1cc3c(cc1Br)OCO3)CC(=O)N2 (stereo not drawn),-0.34,·
CCOc1ccccc1/C=N/NC(=O)N/N=C/c1ccccc1OCC,-0.99,·
N#C/C(=C\c1ccc(Cl)cc1)S(=O)(=O)c1ccc(F)cc1,-1.1,·
CCS(=O)(=O)N1CCC2(CC1)OC(=O)C(C)=C2C(=O)NC1CCCC1,·,1.6
COc1ccc2[nH]c3ccccc3c2c1,-2.4,1.4
Cc1cc2n(n1)CCC(=O)N2CC(=O)NCc1ccc(C)o1,·,0.39
O=c1c2ccccc2nc2n1CCCN2CCOc1ccc(F)cc1,-1.8,1.2
COCCCNC(=O)C1CCN(S(C)(=O)=O)CC1,·,1.1
CC1CC(=O)Nc2cc(S(=O)(=O)N3CCC(N4CCCCC4)CC3)ccc2S1 (stereo not drawn),·,0.79
CCc1ccccc1N1C(=O)Nc2ccccc2S1(=O)=O,·,1.7
CNC(=O)c1cccn(-c2ccc(NC(C)=O)cc2)c1=O,·,1.4
Cc1ccc(-c2c(N3CCN(c4cc(Cl)ccc4C)CC3)c(=O)c2=O)cc1C,·,1.1
